From PubChem
HepG2 = HepG2 cell cytotoxicity, dose response, cytotoxicity control, ATP luminescence, cherry-pick, activator set 2 (AID 1053143); HepG2 viability, CellTiter-Glo ATP luminescence, 72 h; AC50 in µM for hits, for the others activity change, negative = cytotoxicity, % at the top dose, mostly 26 µM; actives 3.7% (n = 3,400);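 active means fitted AC50 at most twice the highest valid dose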;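 further: 0 = neutral control and -100 = positive control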
Active calls of the source: *; [ ] = dose if it differs, or a comment. A portion of the library; rates above refer to the full screens.

mol	HepG2
O=C(NCCc1c[nH]c2ccccc12)c1cc2ccccc2oc1=O	6%
Cc1ccc(C)c(OCC(=O)Nc2cccc(C(=O)O)c2)c1C	0%
O=C(CSc1nnc(-c2ccccn2)o1)Nc1ccccc1F	-19%
c1ccc(-c2ccc3sccc3n2)cc1	9%
Cc1nc(C)c(-c2csc(Nc3cccc(O)c3)n2)s1	-18%
O=C(NCCc1cccs1)C1CC(c2ccccc2[N+](=O)[O-])=NO1 (centres undefined)	-4%[12 µM]
Cc1ccc(NC(=O)NC2CCCCCCC2)cc1	-15%
CSc1nc2ccc(NC(=O)c3cc4ccccc4o3)cc2s1	-15%
COC(=O)c1sccc1NN1C(=O)c2ccccc2C1=O	-20%
CN(C(=O)COC(=O)c1cc(=O)[nH]c2ccccc12)C1CCCCC1	-19%
Cc1ccc2c(Cl)c(C(=O)Nc3cc(C)on3)sc2c1	1%
O=C(Nc1nnc(C23CC4CC(CC(C4)C2)C3)s1)c1ccco1	-13%
Cc1ccc(Sc2c([N+](=O)[O-])c(=O)n(C)c3ccccc23)cc1	26µM*
CCOCC(=O)Nc1nc2ccc(OCC)cc2s1	-8%
O=C(Nc1sc(-c2ccccc2)cc1C(=O)O)c1ccccc1	3%

Some of these compounds in order of molecular weight, largest number first.
mol	HepG2
CSc1nc2ccc(NC(=O)c3cc4ccccc4o3)cc2s1	-15%
O=C(NCCc1c[nH]c2ccccc12)c1cc2ccccc2oc1=O	6%
O=C(CSc1nnc(-c2ccccn2)o1)Nc1ccccc1F	-19%
Cc1ccc(Sc2c([N+](=O)[O-])c(=O)n(C)c3ccccc23)cc1	26µM*
Cc1ccc(C)c(OCC(=O)Nc2cccc(C(=O)O)c2)c1C	0%
Cc1ccc2c(Cl)c(C(=O)Nc3cc(C)on3)sc2c1	1%
Cc1nc(C)c(-c2csc(Nc3cccc(O)c3)n2)s1	-18%
CCOCC(=O)Nc1nc2ccc(OCC)cc2s1	-8%
Cc1ccc(NC(=O)NC2CCCCCCC2)cc1	-15%
c1ccc(-c2ccc3sccc3n2)cc1	9%

The results go on:
mol	HepG2
FC(F)Oc1ccc(C2N=C(c3ccccc3)NO2)cc1 (centres undefined)	-13%
Cc1cc(N=Nc2ccccc2)cc(C)c1NC(=O)C(F)(F)F	-13%
O=C(CSc1nnc([C@@H]2CCCN2)o1)c1ccc(Cl)cc1	-9%
O=C(CCc1nnc(C2CCCCC2)o1)N1CCN(c2ccccc2F)CC1	-2%
COc1ccc(C)cc1NC(=O)CSc1nnnn1Cc1ccccc1	-16%
O=C1/C(=C\c2ccc(Br)o2)Cc2ccccc21	0%
O=c1[nH]c(-c2ccc(-c3cccc(Cl)c3)o2)nc2ccccc12	-6%
CC(OC(=O)c1cccs1)C(=O)NCc1ccccc1 (centres undefined)	-9%
COc1c(OC(C)=O)ccc(/C=C/c2ccc3cccc(OC)c3n2)c1[N+](=O)[O-]	-14%
COc1ncccc1-c1nnn(-c2ccc(F)cc2)n1	26µM*
Cc1ccc2oc(C(=O)Nc3nnc(C)s3)c(C)c2c1	-19%
NC(=O)c1ccccc1NC(=O)/C=C/c1ccccc1	14%
Cc1cc(NC(=O)CSc2nc3c(cc2C#N)CCCCC3)no1	-3%
CCOCCCNC(=O)C(c1ccc(Cl)cc1)N1CCC2(CC1)OCCO2 (centres undefined)	-16%
COc1ccc(-c2nnc(-c3ccccc3O)o2)cc1	-17%
O=[N+]([O-])c1ccc(NN=Cc2ccc(O)cc2)nc1	3%
CC(C)(C)NC(=O)/C=C/c1ccc(C(F)(F)F)cc1	4%
CC(=Nc1ccccc1O)c1sc2ccccc2c1O	-5%
Cc1noc(/C=C/Nc2ccc(F)cc2F)c1[N+](=O)[O-]	-19%
Cc1ccc(-c2ccc(CCC(=O)O)n2NC(=O)c2ccc([N+](=O)[O-])cc2)cc1	9%
O=C(N/N=C/c1ccco1)Nc1ccccc1	-38%
O=C(CSc1nnc(-c2cccnc2)o1)Nc1ccccc1F	-15%
CCOC(=O)C1=NN(c2ccc(Cl)cc2)C(=O)C1	2%[12 µM]
Oc1ccccc1/C=N/Nc1cccc2cccnc12	-6%
CCN1CCC2(CC1)Oc1c(OC)cccc1C1CC(c3cccnc3)=NN12 (centres undefined)	-12%
Cc1ccc(-n2c(C(C)C)nc3oc4ccccc4c(=O)c3c2=O)cc1	-14%
Cc1ccc(NC(=O)c2ccc3ccccc3n2)cc1S(=O)(=O)N(C)C	4%
CCOC(=O)c1c(C=O)c2sc(C)cc2n1C	2%
Cn1c(-c2ccccc2)cnc1N	3%
C/C(=N\NC(=O)c1ccc2ccccc2c1)c1cccs1	-14%
CCCCCC(=O)Nc1nc2ccccc2[nH]1	-10%
COc1ccc(NC(=O)NS(=O)(=O)c2ccc(C)cc2)cc1OC	-13%[12 µM]
CCC(=O)Nc1cc(C(=O)OCC(=O)c2ccccc2Cl)ccc1C	-11%
N#Cc1nc(-c2ccc(Cl)cc2)oc1NCc1ccco1	-19%
COc1ccc(-c2cc(-c3ccc(OC)cc3)[nH]n2)cc1	11%
O=C(Nc1ccc(Br)cc1)NC1CCCCCCC1	-12%
Cc1cc(OCc2nc3ccccc3s2)ccc1N	-3%
Oc1sc(C=Nc2ccccc2)c2ccccc12	-6%
c1ccc2c(c1)Cc1cc3ccccc3nc1-2	-12%
CC(=O)N/N=C\c1ccccc1OC/C=C/c1ccccc1	-17%[12 µM]
Cc1ccc(NC(=O)c2cc3c(s2)CCCC3)cc1	-6%
Cc1nn2cc(-c3ccc(Cl)cc3)cnc2c1Cl	-5%
Cc1ccc(NC(=O)c2ccc(Nc3ccccc3F)nc2)cc1	-7%
CN(C)c1ccc(/C=N/OC(=O)Nc2ccccc2)cc1	-11%
Cc1cc(=O)oc2cc(NC(=O)c3cc(F)ccc3F)ccc12	6%
Cc1nn(Cc2ccccc2Cl)c(Cl)c1C(=O)NCCc1ccccc1	2%
COc1ccc(NC(=O)Nc2cc(C)ccn2)cc1	3%
CCCc1cc(C(N)=O)c(NC(=O)c2ccco2)s1	13%[12 µM]
CC1(C)Cc2c(c(N3CCOCC3)nc3sc(C(=O)Nc4ccccc4)c(N)c23)CO1	-10%
Fc1ccccc1-c1cc2ncccc2cn1	-3%
O=C(Nc1ccc2c(c1)CCC2)Nc1ccc(F)cc1F	-23%
O=C(Oc1ccc(OC(=O)C2CCC2)cc1)C1CCC1	-19%
CCN(CC)c1ccc(NC(=O)c2ccc(Br)o2)cc1	-23%
Cc1cccn2cc(CNc3ccccc3)nc12	9%
COc1ccc(-c2nc(-c3ccc(Br)o3)no2)cc1	-12%
O=C(COc1ccc(Cl)cc1Br)NC(=O)NC1CCCC1	3%
Cc1cccc(NC(=O)c2n[nH]c([N+](=O)[O-])c2Br)c1C	-30%
CC(C)C/C=C1\CCc2c([nH]c3ccccc23)C1=O	-17%
CC(=O)c1c(C)[nH]c(C(=O)Nc2ccc(C)c(C)c2)c1C	2%
CCN(CC)c1ccc(/C=N/NC(=O)Nc2ccccc2)cc1	-15%

Further compounds follow.
mol	HepG2
CCCC(=O)N(C)c1nnc(-c2ccc(OC)cc2)s1	-15%
N/C(=N\OC(=O)c1ccco1)c1cccnc1	-7%
Cc1ccccc1-c1cc(-c2ccccc2O)n[nH]1	3%[12 µM]
COc1ncccc1-c1nnn(-c2ccc(C)cc2)n1	-29%
O=C(Nc1nc2ccccc2[nH]1)c1cccc(F)c1	-18%
Cc1cc2n(n1)SC(Nc1cccc3ccccc13)N2 (centres undefined)	-5%
Cc1cc(NC(=O)c2ccoc2C)ccc1Br	-32%
CCCOc1ccc(-c2nc(N3CCN(C)CC3)c3ccccc3n2)cc1	-2%[12 µM]
O=C(Nc1ccc2c(c1)OCO2)c1ccc(CO)cc1	-13%[12 µM]
COc1ccc(C(=O)COC(=O)c2cccs2)cc1	2%
CC(C)(C)c1cc(C(=O)NNC(=O)c2ccc(C(F)(F)F)cc2)no1	-14%
O=C(CC(SCCO)c1ccc2c(c1)OCO2)c1cccs1 (centres undefined)	-5%
O=C(Nc1ccccc1Br)c1ccc(N2CCCC2=O)cc1	-18%
COc1cc(/C=N/Nc2ccc(C(F)(F)F)cn2)ccc1O	-17%
O=C(c1ccc(-c2ccc([N+](=O)[O-])cc2)o1)N1CCCCC1	-12%
CC1(O)C(c2ccccc2)=Nc2ccccc21 (centres undefined)	-24%
Cc1nc2sc(C(=O)Nc3ccccc3)c(N)c2c(C)c1[N+](=O)[O-]	-16%
CC(C)CC1C(C#N)=C(N)Oc2n[nH]c(-c3ccccc3)c21 (centres undefined)	-4%
CC(C)(C)c1cc(NCCCn2ccnc2)n2ncc(-c3ccccc3)c2n1	-20%
CCn1c(=O)c(C(=O)NCc2ccc(Cl)cc2)c(O)c2ccccc21	-4%
Cc1ccsc1C(=O)OCC(=O)N(C)C1CCCCC1	-2%
O=C(CNC(=O)c1ccccc1F)c1ccccc1	-9%
COc1cc(/C=C2\SC(=O)N(CCN)C2=O)ccc1OS(=O)(=O)c1cc(C)ccc1C	-16%
CCOc1ccc(-n2c(COc3ccc(C)cc3)nnc2SCC(N)=O)cc1	-21%[12 µM]
Cc1ccc(NC(=O)c2ccoc2C)cc1C	5%
O=C(NCc1ccccn1)Nc1cccc(Cl)c1	-2%
[O-][n+]1ccc(C2CC2)cc1	-15%
CC1(CCC(=O)O)C(=O)CCC2C1CCC1(C)C2CCC1(C)O (centres undefined)	-2%
CC(=O)Nc1ccc(-c2csc(Nc3cccc(C)n3)n2)cc1	-7%
Cc1[nH]c2ccc(F)cc2c1CCN1C(=O)OC(C)(C)C1(C)O (centres undefined)	-1%
COc1ccc(-c2ccc3oc(-c4ccsc4)cc(=O)c3c2)cn1	-17%
Oc1cccc(Nc2nc(O)c(/C=C3\C=Nc4ccccc43)s2)c1	-9%
Cc1ccc(NC(=O)N2CCC(c3ccccc3)C2)cc1C (centres undefined)	12%
COc1ccc(-c2nc3ccccc3s2)cc1NC(C)=O	7%
CC1CC(O)C(C)CN1 (centres undefined)	10%
COc1ccc2c(c1)O/C(=C\c1ccco1)C2=O	-12%
COc1ccc2nc(NC3=NCCC3)sc2c1	-14%
CN(C)c1ccc(N/C=C/C(=O)c2ccco2)cc1	-3%
O=C(Nc1nccs1)c1ccc(-c2ccc(F)cc2)o1	-7%
N/C(=N\OC(=O)CCC1CCCC1)c1ccccn1	-9%
Cc1ccc2sc(-c3ccc(NC(=O)CCN4C(=O)c5ccccc5C4=O)cc3)nc2c1	2%
O=C(Nc1ccc(-c2cn3ccsc3n2)cc1)C1CC1	-12%
Nc1ccc(-c2nc3cc([N+](=O)[O-])ccc3o2)cc1	-4%
Cc1ccc(/C=N/Nc2nc(Cl)c(Cl)cc2Cl)s1	-14%
C#CCSc1nnc(-c2ccc(OC)cc2)o1	-15%
CC(C)(C)S(=O)(=O)c1cnc(-c2ccc(Cl)cc2)nc1N	-18%
COc1ccc(C2=NNC(=O)C2(C)Br)cc1 (centres undefined)	-8%
O=C(Nc1ccc(NC(=O)c2ccccc2F)cc1)c1cccs1	-17%
Clc1ccc(-c2nc3n(n2)Cc2ccccc2-3)cc1	0%
O=C(N/N=C/c1ccc2nccnc2c1)c1ccccc1O	1%
O=C(NCc1cccs1)c1cc(-c2ccc(O)cc2)on1	-11%
COc1ccc(N=Nc2ccc(N)nc2N)cc1	9%
Nc1nc(SCc2ccccc2)cc(SCc2ccccc2)n1	-2%
Cc1csc(NC(=O)c2ccc3nc[nH]c3c2)n1	-10%
Cc1ccc(NC(=O)c2oc3ccccc3c2NC(=O)C2CCCO2)cc1C (centres undefined)	-9%
Cc1ccc(NC(=O)c2ccc(OCC3CCCO3)cc2)cc1Cl (centres undefined)	-31%
Cc1ccc(OCC(=O)O/N=C(\N)c2ccccn2)cc1C	-2%
CN=C1S/C(=C\c2ccc(O)c(OC)c2)C(=O)N1C	-8%
Cc1ccc(/C=C/C(=O)c2nc3ccccc3[nH]2)cc1	0%
CC(C)(C)NC(=O)NC(=O)COc1ccccc1C#N	-6%

Additional structures:
mol	HepG2
CC(=O)c1sc(NC(=O)c2ccc3c(c2)OCO3)nc1C	-18%
COc1cc(C)ccc1OCC(=O)Nc1ccc2c(c1)OCO2	-7%
O=C(Nc1nc2ccsc2c(=O)s1)c1ccco1	-13%
O=C(NNS(=O)(=O)c1ccccc1)C1CCN(S(=O)(=O)c2ccccc2)CC1	-15%
COc1ccc(C(=O)N=c2sc3ccccc3n2C)cc1OC	0%
Clc1ccc(Cn2c(/C=C/c3ccco3)nc3ccccc32)cc1	-8%
CN1CCSc2ccc(C(=O)Nc3ccc(Cl)cc3)cc21	-10%
NS(=O)(=O)c1ccc(CNC(=O)c2ccc(S(=O)(=O)C(F)F)cc2)cc1	-12%
Cc1cc2ncc(-c3ccccc3)nc2cc1C	-23%
CCC(=O)Nc1ccc(NC(=O)c2ccco2)c(OC)c1	68%
CN1/C(=C\C=C2/C(=O)Oc3ccccc3C2=O)C(C)(C)c2ccccc21	-23%
COc1cccc(C2(O)CC(C(F)(F)F)=NN2C(=O)c2ccccn2)c1 (centres undefined)	-2%
CCCCOc1ccc(-c2nnc(-c3ccco3)o2)cc1	-9%
COc1ccc2c(c1OC)C(=O)N(c1ccc(F)cc1)C2	-5%
CC(=O)c1c(C)nc(Nc2nc3ccccc3s2)nc1C	-11%
CSCCNC(=O)c1ccc2nc(Cc3ccccc3F)oc2c1	-6%
